Source: PubChem BioAssay
B2AR ag: beta2AR agonists driving receptor internalization, primary screen, cell-based, FAP fluorogen, flow cytometry. Beta-2 adrenergic receptor (Homo sapiens), P07550. Am2.2-beta2AR cells; reference of the scale not given here. response, % (concentration not given with the values). 340,000 tested, 0.43% active. AID 504454, 2011;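 active = response above a set limit, near 3 SD of response in nonfluorescent compounds, cut at about 42% in these data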;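 also: stock transfer was 100 nL into about 11 µL; a reference agonist was the positive control; negative values mostly stem from fluorescent compounds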
Target sequence (P07550 whole entry, looked up): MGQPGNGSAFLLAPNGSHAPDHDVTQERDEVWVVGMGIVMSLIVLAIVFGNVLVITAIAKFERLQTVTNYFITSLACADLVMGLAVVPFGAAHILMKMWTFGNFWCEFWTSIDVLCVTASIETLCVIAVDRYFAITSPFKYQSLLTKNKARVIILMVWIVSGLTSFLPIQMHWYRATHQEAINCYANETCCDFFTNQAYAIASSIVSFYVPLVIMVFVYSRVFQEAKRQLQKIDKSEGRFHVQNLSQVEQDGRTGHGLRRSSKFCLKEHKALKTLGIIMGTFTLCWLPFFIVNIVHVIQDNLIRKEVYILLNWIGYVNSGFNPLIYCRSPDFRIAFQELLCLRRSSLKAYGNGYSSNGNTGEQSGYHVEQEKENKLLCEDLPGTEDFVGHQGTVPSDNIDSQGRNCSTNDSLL
Vif TR-FRET: inhibitors of Vif binding to APOBEC3G peptide, primary screen, biochemical, TR-FRET, GST-Vif 1-94, biotin-A3G peptide, dose response retest (AID 1117319). 260,000 tested, 0.57% active. inhibition, %; hits with a dose series show IC50 in µM. Virion infectivity factor (Human immunodeficiency virus type 1 group M subtype B (isolate …. TR-FRET GST-Vif / biotin-A3G peptide binding; higher % means a stronger effect; test concentration not given here; strong numbers were not always called active;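 active = above the screen mean plus three standard deviations and confirmed in dose response; inconclusive = results disagree or hit not tested in dose response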;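 also: Vif residues 1-94 fused to GST binding biotinylated APOBEC3G peptide 110-148; 0% = full assay without inhibitor and 100% = GST in place of GST-Vif; retest series ran down from 100 µM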
Ecoli growth: E. coli growth inhibition, primary screen, OD600; Escherichia coli growth, 23 h; active compounds read low; OD600 absorbance (test concentration not listed); 330,000 tested, 0.21% active;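 active = OD600 absorbance below the run mean of sample wells minus 3.6 SD, in any replicate, cut at about 0.56 in these data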;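 also: stock transfer was 300 nL into about 60 µL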
A1 inh: caspase 3/7 activation in MEF A1-2A-BIM cells, primary screen, A1 inhibitor project, cell-based, luminescence, HTS; Caspase-Glo 3/7 luminescence, 3 h; percent of clofoctol response, vehicle zero; caspase activation, % (test concentration not listed); 330,000 tested, 0.066% active; AID 2462, 2010;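 active = over half of replicate activation scores above 10%, or exactly half above 10 with the replicate mean above 10; inconclusive = replicate mean below 10 yet half the replicates above 10; inactive = over half of replicates below 10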;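 also: wells of about 30 µL received 50 nL stock; many hits fall short of the cut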
UCH37 DUB inh: inhibitors of human UCH37 deubiquitinase, primary screen, biochemical, Ub-AMC cleavage, fluorescence; 330,000 tested, 0.33% active; Ubiquitin carboxyl-terminal hydrolase isozyme L5 (Homo sapiens), Q9Y5K5; purified proteasome/UCH37; inhibition, % (no concentration beside the values);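 active = mean of two replicates above 20%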;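 also: 0% = compound-free wells with enzyme and 100% = wells lacking proteasome; stock transfer was 100 nL into about 20 µL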
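System: Proteasome-associated human UCH37 deubiquitinase; Input: 0.15 nM proteasome in added enzyme buffer; Also added: Ub-AMC substrate from 1 µM stock; Incubation: 30 min compound-proteasome preincubation then 25 min substrate reaction, room temperature; Detection: fluorescence, ex 355 nm, em 460 nm; Read-out: % inhibition of Ub-AMC cleavage fluorescence; Benchmarks: no-proteasome and no-compound wells.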
HNF4A DNA FP: change in binding of human HNF4A to DNA, primary screen, biochemical, fluorescence polarization, FITC-DNA | Hepatocyte nuclear factor 4-alpha (Homo sapiens), P41235 | activity change, % at 10 µM | 360,000 tested, 0.3% active | 1 h; in the data active = activity change above about 30%, passing the limit was not always enough;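 also: controls were the assay level and a saturating level of protein; the project sought stronger binding though the title names inhibitors; some compounds called inactive have numbers as strong as hits; positive values seem to mean higher polarization but the record does not say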
Target sequence (P41235 whole entry, looked up): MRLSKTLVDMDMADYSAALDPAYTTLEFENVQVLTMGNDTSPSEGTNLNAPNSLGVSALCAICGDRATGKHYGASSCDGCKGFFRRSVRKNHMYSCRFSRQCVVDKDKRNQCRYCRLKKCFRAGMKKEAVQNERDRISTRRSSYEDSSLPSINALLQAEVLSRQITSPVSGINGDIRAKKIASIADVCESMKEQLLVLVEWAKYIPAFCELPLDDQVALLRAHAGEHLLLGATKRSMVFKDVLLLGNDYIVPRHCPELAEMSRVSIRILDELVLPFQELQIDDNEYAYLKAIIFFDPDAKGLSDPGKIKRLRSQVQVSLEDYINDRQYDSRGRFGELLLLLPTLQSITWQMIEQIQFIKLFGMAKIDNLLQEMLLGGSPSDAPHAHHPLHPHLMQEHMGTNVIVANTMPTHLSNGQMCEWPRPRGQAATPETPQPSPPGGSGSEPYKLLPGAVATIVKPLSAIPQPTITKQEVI
LANA-H2B inh: blockers of LANA interaction with H2A/H2B – biochemical, FP readout, HTS, primary screen | AID 2629, 2010 | cell-free LANA-H2A/H2B peptide, fluorescence polarization | Protein LANA1 (Human herpesvirus 8 type P (isolate GK18)), Q9QR71 | inhibition, % (no concentration beside the values) | 320,000 tested, 0.6% active; in the data active = inhibition mostly above about 10%, no sharp cut-off; inactive = mostly below about 6.7%;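 also: stock transfer was 7.5 nL into about 10 µL; 0% = median of vehicle wells and 100% = median of positive control wells; one replicate is shown; the record names a cut of 25% in any replicate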
* marks the source's active call; other numbers are inactive results; ? = inconclusive; . = no result given; & = joins results of further samples. Random draw from the library, and some 2.1% of all compounds hit somewhere here.

SMILES	B2AR ag	Vif TR-FRET	Ecoli growth	A1 inh	UCH37 DUB inh	HNF4A DNA FP	LANA-H2B inh
COc1cccc(COC(=O)C2CC(=O)N(Cc3ccc(C)cc3)C2)c1OC (stereo not given)	0.6	-8.1%	0.671	1.8	5.6	2.6	-1.1
Fc1cccc(-c2nn[nH]n2)c1	1.4	2.5%	0.788	-0.9	2.3	-4.4	-8.0
COc1ccccc1Nc1nc(N)nc(CN2CCN(Cc3ccccc3)CC2)n1	-7.0	5.2%	0.716	0.9	0.3	3.3	-6.5
CCOc1ccc(NC(=O)CSc2nnc(Cc3cccn3C)n2-c2ccc(OC)cc2)cc1	3.0	-1.8%&-0.6%	0.704	0.6	-0.4	2.5	3.3
COc1cccc(CNC(=O)CCC2CCCN(C(=O)C3CCOCC3)C2)c1 (stereo not given)	-1.8	-9.1%	0.715	0.2	3.5	-2.4	-2.8
Cc1ccc(OCc2ccc(C(=O)Nc3nc4ccccc4n3C)o2)c([N+](=O)[O-])c1	-17.6	-7.0%	0.674	-0.5	0.0	3.2	-5.1
O=C(CCN1C(=O)C2C3C=CC(C3)C2C1=O)N1CCN(c2ccccc2Cl)CC1 (stereo not given)	2.1	4.2%	0.816	0.1	1.1	-0.9	-1.1
CCN(CC)S(=O)(=O)c1ccc2c(c1)c(=O)c(C(=O)N1CCc3ccccc3C1)cn2C	-3.2	-3.0%&-16.3%	0.72	?	4.9	3.6	-0.5
CCN(CC)S(=O)(=O)c1ccc2nc(NC(=O)c3cccs3)sc2c1	4.4	-1.5%	0.73	-0.1	-2.0	1.4	-4.8
Cc1cc(C)c(-c2cc(NC(=O)CSc3nncn3C)n(-c3ccccc3)n2)cc1C	-28.8	-2.4%	0.742	0.3	-6.0	1.3	7.7
CCC(=O)N1CCc2cc(Br)cc(S(=O)(=O)NCC3CCCO3)c21 (stereo not given)	1.3	-7.9%	0.706	-0.6	-0.1	0.8	2.6
Cc1cccc2cc(C(c3nnnn3CC3CCCO3)N3CCc4ccccc4C3)c(=O)[nH]c12 (stereo not given)	.	?	0.686	0.4	2.9	.	8.0
COCC(=O)NC1CCN(S(=O)(=O)c2cccc(C(C)=O)c2)CC1	-5.2	-0.1%	0.677	-0.7	-1.2	5.0	-3.9
CCOCCc1nnc(NC(=O)CS(=O)(=O)c2ccc(C)cc2)s1	4.6	.	0.665	-0.3	2.8	-1.3	0.4
CC(C)c1ccc(OCC(=O)Nc2ccc(OC(F)(F)F)cc2)cc1	-5.8	-3.9%	0.71	0.4	0.3	-0.9	1.6
CC(O)[C@H]1CNCCN1CCc1cccc(F)c1 (stereo not given in full)	-1.0	.	.	1.0	-1.9	1.3	-3.4
CCCCn1c(N)c(N(CCOC)C(=O)c2ccco2)c(=O)[nH]c1=O	-4.0	7.2%	0.687	0.5	0.2	4.2	2.2
Cc1cc(OCC(=O)NC2CC(C)(C)NC(C)(C)C2)c2c(C)cc(=O)oc2c1	6.5	-6.7%	0.704	1.6	-100.1	-0.8	-8.9
COC(=O)c1sc2cc(C(F)(F)F)cnc2c1-c1cccnc1	0.4	3.0%	0.646	-0.5	4.8	1.6	3.8
COc1ccccc1/C=C1\SC(=O)N(CCC(=O)NNC(=O)c2ccccc2Cl)C1=O	4.5	21.1%	0.766	-0.8	-15.7	-3.0	-2.5
COc1ccc(CN2C(=O)c3cccnc3C2=O)cc1S(=O)(=O)NCc1ccc(C)o1	0.8	.	0.723	1.3	2.0	2.9	1.6
Cc1c(Cl)cccc1Nc1nc(N)nc(CSc2nc3ccccc3s2)n1	-2.0	-1.8%	0.722	0.2	2.1	-1.7	4.9
COc1ccc(CNCC2COc3ccccc3O2)cc1 (stereo not given)	-9.3	-3.7%	0.631	0.8	1.7	-1.5	-6.0
COc1cc(NC(=O)c2ccccc2Cl)c(OC)cc1NC(=O)CN1CCCCC1	2.8	6.9%	0.68	0.6	2.3	3.2	-2.2
Cc1cc2c(cc1C)NC1=C(N2)OC(c2cccc(O)c2)C1=O (stereo not given)	-0.9	5.2%	0.63	0.4	4.3	3.3	-2.0
Cn1nnnc1SCC(=O)Nc1ccc(Cl)c(S(=O)(=O)N2CCOCC2)c1	-1.3	-20.3%	0.654	0.4	-1.2	0.9	4.6
Cc1cc(C)n(-c2nnc(N3CCN(c4ccccc4)CC3)nn2)n1	-0.1	5.4%	0.709	1.0	1.9	-0.7	1.0
Nc1cc(Cl)nc(N/N=C/c2ccc([N+](=O)[O-])cc2)n1	1.6	18.5%	.	-0.1	.	3.1	-4.6
COC(=O)c1sc(N)c(C(=O)OC)c1COC(=O)[C@@H](NS(=O)(=O)c1cccc(Cl)c1)C(C)C	1.8	0.4%	0.7	0.2	-1.7	2.1	-0.5
O=C(Nc1ccc(Cl)cc1)N(Cc1nnc2n1CCCCC2)c1ccccc1	0.5	8.4%	0.613	0.1	1.1	3.9	5.2
CC(C)c1nccn1CCC(=O)O	-1.2	-4.6%	0.679	0.5	0.9	-0.4	6.6
Cc1cc(=O)oc2c(C)c(OC(C)C(=O)NCCCN3CCCC3=O)ccc12 (stereo not given)	-4.4	.	0.678	0.9	-37.2	-0.2	-5.2
CC(NC(=O)c1ccccc1)c1nnc(SCC(=O)NC2=NCCS2)n1C (stereo not given)	-5.0	.	0.641	-0.1	-0.4	-3.9	1.4
O=c1c(-c2ccco2)[n+]([O-])c2ccccc2n1OCc1ccccn1	9.3	13.8%	0.706	.	3.5	-0.1	.
Cc1nn(CC(=O)NCCN2CCCCCC2)c(=O)c2nn(-c3ccccc3)c(C)c12	-5.1	.	0.676	1.6	8.3	8.4	-1.9
COC(=O)C(C)N(C#N)c1nc(NC(C)C)nc(SC)n1 (stereo not given)	5.5	-1.5%	0.754	-0.5	3.5	2.1	2.2
COc1ccc(C2=Nn3c(nnc3-c3ccccc3C(F)(F)F)SC2)cc1OC1CCOC1 (stereo not given)	8.6	.	0.688	-0.2	0.7	0.0	0.5
COc1ccc(/C=N\NC(=O)c2ccccc2Br)cc1COc1ccc(F)cc1	-2.8	.	.	0.0	.	3.2	1.7
O=C(COc1ccc(-c2nnco2)cc1)Nc1cc([N+](=O)[O-])ccc1F	-14.7	-9.7%	0.719	-0.4	3.3	-0.2	2.9
CC(=O)Nc1ccc(S(=O)(=O)c2ccc([N+](=O)[O-])cc2)cc1	-2.7	-6.0%	0.675	-0.6	5.5	1.1	3.4
N=c1sccn1CC(=O)NCc1ccc(Cl)cc1Cl	3.9	30.1%	0.689	-0.4	3.9	3.1	-6.6
CCOC(=O)NC(=O)/C(N=Nc1ccc(C(F)(F)F)cc1)=C(\C)O	-6.6	.	0.65	-0.4	7.2	-3.4	-12.1
Cc1cc(Nc2ccc(F)cc2Cl)n2nc(C)nc2n1	-4.0	19.1%	0.726	0.8	6.1	2.0	4.8
COc1cc(OC)cc(C(=O)NNC(=O)Cc2ccc(OC)c(S(=O)(=O)N3CCOCC3)c2)c1	-1.0	.	0.691	-0.4	6.7	3.9	.
O=C(CN1CCN(S(=O)(=O)c2ccc(Cl)cc2)CC1)NCC1(N2CCOCC2)CCCCC1	-4.0	-7.1%	0.676	0.4	-0.1	-2.1	1.1
CCn1cc([N+](=O)[O-])c(C(=O)N2N=C3/C(=C/c4cccs4)CCCC3C2c2cccs2)n1 (stereo not given)	-12.6	?	0.771	0.5	3.9	5.0	2.2
CCOc1ccc(NC(=O)Nc2cnccn2)cc1	-6.9	-3.1%	0.724	-1.6	2.9	0.5	-0.2
c1ccc(-n2nnnc2OCCOc2nnnn2-c2ccccc2)cc1	8.7	2.5%	0.689	0.6	0.1	2.4	4.6
Nc1ccc(Cl)c(S(=O)(=O)Nc2ccc(Cl)cc2)c1	-3.9	3.4%	0.694	0.5	2.5	3.2	1.7
O=C(COc1ccc([N+](=O)[O-])cc1)N(C1CCCCC1)C1CCS(=O)(=O)C1 (stereo not given)	-5.5	-0.3%	0.601	-0.1	2.6	3.4	1.7
NCCN1CCN2C(=O)CN(C(=O)c3ccccc3)CC12 (stereo not given)	.	.	.	1.2	5.4	.	5.4
O=C(/C=C/c1ccccc1)N1CCOCC1	-1.0	2.2%	0.665	-1.0	2.2	0.6	-15.0
COc1ccc(C(=O)N/C(=C/c2cccnc2)C(=O)N2CCCCCC2)cc1OC	1.8	2.4%	0.633	-0.5	3.3	-1.6	-0.6
Cc1ccc2nc(-c3ccccc3)cc(C(=O)Nc3cccnc3)c2c1	20.6	-12.2%	0.652	-0.6	0.1	5.0	-1.4
CC1CCCN(C(=O)Cn2nnc(-c3cccnc3)n2)C1 (stereo not given)	1.7	-1.1%	0.66	0.5	0.6	0.9	0.8
CCN1CCN(c2ccc(N=Cc3ccccc3O)cc2)CC1	-7.9	-0.4%	0.616	1.4	1.3	1.0	-3.1
CC(NC(=O)c1nn(C)c(=O)c2ccccc12)c1ccccc1 (stereo not given)	-1.3	?	0.706	1.5	1.1	3.5	1.4
NC(=O)CSc1nnc(-c2ccco2)n1-c1ccccc1	1.9	-4.9%	0.649	-0.2	1.6	4.1	-2.7
Cc1ccc(OCCC(=O)OCC(=O)Nc2ccc(Cl)cn2)cc1	-0.8	12.1%	0.74	?	-7.1	0.8	3.0
CCN(C(=O)CSc1nnc(-c2ccccc2OC)n1N)c1c(N)n(Cc2ccccc2)c(=O)[nH]c1=O	0.1	.	0.721	.	-1.4	1.1	.

The list goes on:
SMILES	B2AR ag	Vif TR-FRET	Ecoli growth	A1 inh	UCH37 DUB inh	HNF4A DNA FP	LANA-H2B inh
CCC1CCCCN1S(=O)(=O)c1c(C)n(C)c(=O)n(C)c1=O (stereo not given)	1.4	-1.3%	0.683	0.1	1.7	0.0	2.6
Cn1c(=O)oc2cc(S(=O)(=O)N3CCCC(C(=O)Nc4ccccn4)C3)ccc21 (stereo not given)	-19.0	0.9%	0.733	-0.4	5.8	2.3	-3.4
COc1ccc(CNC(=O)CC(NC(N)=O)c2ccccc2Cl)cc1OC (stereo not given)	2.4	-0.3%	0.677	0.1	0.9	-0.8	5.6
Cc1ccccc1NC(=O)C(C)OC(=O)C1CC(=O)N(Cc2ccco2)C1 (stereo not given)	0.0	16.0%	0.71	0.4	1.8	5.0	-5.5
O=C(c1cc2ccccc2oc1=O)N(Cc1ccco1)CC1CCCO1 (stereo not given)	-4.6	10.8%	0.723	0.9	1.4	1.7	-4.1
CC[C@]1(C(=O)OC)[C@H]2C(=O)N(Cc3ccccc3)C(=O)[C@H]2[C@H]2CN=C(SCc3ccc(Cl)cc3)N21	5.8	-8.0%	0.72	.	0.1	-0.8	.
COC(=O)c1cc(NC(=O)Cn2nc(C)n3cccc3c2=O)cc(C(=O)OC)c1	9.3	-3.7%	0.726	-0.8	-3.9	6.6	-0.2
Cc1cc(C)n(-c2ccc3cccc(NS(C)(=O)=O)c3n2)n1	0.7	-3.2%	0.685	-0.6	0.8	-0.4	1.0
COc1cccc(NC(=O)CN(C)C(C)C(=O)NC(=O)NC2CCCCC2)c1 (stereo not given)	-5.6	-5.2%	0.671	0.9	1.9	0.0	7.3
